Screens from PubChem BioAssay.
Hedgehog – Drosophila hedgehog isoform A inhibitors, primary screen, biochemical, plate reader, single concentration (AID 588832); Biochemical plate reader assay, Hedgehog inhibition; stronger effect = higher value; 8,000 tested, under 10 active; inhibition, % at 30.3 µM; in the data active = inhibition from about 57%;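 note: 0% = neutral control wells and 100% = positive control wells; cholesterol-driven self-cleavage of fly hedgehog protein by fluorescence polarization; read one hour after cholesterol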
An asterisk follows results filed as active. These rows are one share of the data; count on the stated rates, not on these rows.

| molecule | Hedgehog |
| --- | --- |
| COc1cccc(-n2c(Cc3cc(=O)[nH]c(=O)[nH]3)nnc2SCC(=O)NC2CCCC2)c1 | 11 |
| Cc1cc(C)c2c(n1)SCC(=O)N2CC(=O)Nc1ccc(F)cc1 | 10 |
| CC(C)=CCc1c(O)ccc2c1OC(c1ccc(O)c(O)c1)CC2=O (stereo not drawn) | 7 |
| CCOc1cccc(C(=O)Nc2cc(-c3nn4c(C)nnc4s3)ccc2C)c1 | 4 |
| CSC1=NCCN1C(=O)COc1ccccc1 | 2 |
| COc1ccc(-c2cc(=O)oc3cc(OCC(=O)NCC(O)c4ccccc4)ccc23)cc1 (stereo not drawn) | 3 |
| N#CC1=C2SCN(c3ccccc3)CN2C(=O)CC1c1c(Cl)cccc1Cl (stereo not drawn) | 6 |
| COc1cccc2c1C(CO)N1C(C#N)C3CC(C(=O)O)C(C1C2)N3C (stereo not drawn) | -2 |
| Cc1ccnc(N2C(=O)c3ccccc3C2Nc2ccccc2Cl)c1 (stereo not drawn) | 2 |
| COc1ccc(NC(=O)CSc2nnc(Cc3cccn3C)n2-c2ccc(F)cc2)cc1 | 22 |
| COc1cccc(C(=O)Nc2nnc(S(=O)(=O)Nc3cccc(C)c3)s2)c1 | 8 |
| CNC(=O)c1ccc2snnc2c1 | 0 |

The listing continues:
| molecule | Hedgehog |
| --- | --- |
| CCOc1ccc(CNC(=O)C2CCN(C(=O)N3CC(C)Oc4ccccc43)CC2)cc1 (stereo not drawn) | 1 |
| CC1CCc2nn(CC(=O)N3CCCCCC3)cc2C1 (stereo not drawn) | 21 |
| c1ccc(-c2csc3nnc(SCc4ccc5c(c4)OCO5)n23)cc1 | 7 |
| COc1ccc(S(=O)(=O)Cc2ccc(C(=O)NCCCN3CCc4ccccc4C3)o2)cc1 | 20 |
| O=C(Nc1ccccc1)C(O)C(O)C(=O)Nc1ccccc1 (stereo not drawn) | 0 |
| O=C(NCc1cccs1)C1CCCN(S(=O)(=O)c2cccc3cccnc23)C1 (stereo not drawn) | 1 |
| Cc1ccc(C)n1-c1nnc(N2CCC(C(=O)N3CCN(C)CC3)CC2)s1 | 20 |
| CCCc1c(C(=O)OCC)[nH]c2c1C(=O)CCC2 | 10 |
| COc1cccc(CNC(=O)C2CCN(c3nnc(N4CCCC4=O)s3)CC2)c1 | 19 |
| Cc1ccc(C)c(N2CCN(S(=O)(=O)c3cc4c(cc3C)NC(=O)CO4)CC2)c1 | 4 |
| CSC1=NCCN1C(=O)c1c(-c2ccccc2Cl)noc1C | 5 |
| COCCNC(=O)Cn1cc2c(n1)CCC(C)C2 (stereo not drawn) | 6 |

Further compounds follow.
| molecule | Hedgehog |
| --- | --- |
| COc1ccc(S(=O)(=O)Cc2ccc(C(=O)NCCc3ccc(S(N)(=O)=O)cc3)o2)cc1 | 5 |
| Cc1ccccc1-c1nc(CS(=O)(=O)CC(=O)N2CCc3ccccc32)c(C)o1 | 6 |
| CCCC(=O)Nc1nc2c(OC)ccc(OC)c2s1 | 3 |
| Cc1cc2c(cc(C(=O)N3CCC(C(=O)N4CCCC4)CC3)n2Cc2c(F)cccc2Cl)o1 | 7 |
| CCCCN(C)c1nc(-c2ccco2)c2c(c1C#N)CC(C)(C)OC2 | 4 |
| CC(Oc1cc2oc(=O)c3c(c2cc1Cl)CCC3)C(=O)N1C[C@H]2C[C@@H](C1)c1cccc(=O)n1C2 (stereo partly drawn) | 7 |
| CCc1ccccc1NC(=O)c1cc(S(=O)(=O)N2CCc3ccccc32)cn1C | 5 |
| O=C(c1ccccc1F)N1CCN(S(=O)(=O)c2ccc3c(c2)OCCO3)CC1 | 12 |
| C=CC[C@@]12C=C(OC)C(=O)C(OC)=C1O[C@H](c1ccc3c(c1)OCO3)[C@H]2C | 0 |
| COc1ccccc1N1CCN(C(=O)c2ccc3c(Cl)c4c(nc3c2)CCCC4)CC1 | 8 |
| O=C(CN1C(=O)c2cccnc2Oc2ccc(Cl)cc21)Nc1ccccc1F | 20 |
| CC1CCN(S(=O)(=O)c2cn(C)c(=O)n(C)c2=O)CC1 | 5 |

(listing goes on)
| molecule | Hedgehog |
| --- | --- |
| COc1ccc(NC(=O)C2=CC(c3ccc(C)cc3)=NS(=O)(=O)N2C)cc1OC | 7 |
| CCS(=O)(=O)NCc1ccc2c(c1)cc(C)n2C | 4 |
| Cn1c(C(=O)Nc2ccc3c(c2)OCCO3)cc2c(=O)n(C)c3ccccc3c21 | 20 |
| O=C(CCCCCNC(=O)N1CCn2c1nc1ccccc12)N[C@H](Cc1ccccc1)C(=O)O | 9 |
| Cc1cccc(C)c1NC(=O)N1CCC(n2c(=O)[nH]c3ccccc32)CC1 | 9 |
| COc1ccc(C2=NS(=O)(=O)N(C)C(C(=O)NCc3ccco3)=C2)cc1OC | 7 |
| Cc1ccc(-c2nc3cccnc3s2)cc1NC(=O)C1c2ccccc2Oc2ccccc21 | -3 |
| COc1cccc(-c2nc(CS(=O)(=O)CC(=O)Nc3cccc(C)c3C)c(C)o2)c1 | 19 |
| Cc1ccc2c(c1)N(C(=O)CCC(=O)NCCCN(C)Cc1ccccc1)CCO2 | 4 |
| COc1ccc(-n2c(SCC(=O)Nc3ccc4c(c3)OCO4)nc3c(c2=O)SCC3)cc1 | 4 |
| CC1=C(C(=O)OC(C)C)C(c2cccs2)n2ncnc2N1 (stereo not drawn) | -1 |
| CCc1cc(=O)oc2c(C)c(OC(C)C(=O)N3CC[C@@]4(O)CCCC[C@H]4C3)ccc12 (stereo partly drawn) | 8 |

(list continues)
compound,Hedgehog
CCOC(=O)C(C)Oc1cccc2c(=O)n(CC(=O)N3CCCc4ccccc43)ccc12 (stereo not drawn),9
CN(C(=O)CCS(=O)(=O)c1cc2c(cc1Cl)NC(=O)CO2)C1CCCCC1,4
Cc1cccc(Cn2c(SCCN3CCOCC3)nc3c2c(=O)n(C)c(=O)n3C)c1,10
COc1ccc(-n2c(Cc3cccn3C)nnc2SCC(N)=O)cc1,9
COc1cccc(C2N(c3cccc(Cl)c3)C(=O)C3CCCN32)c1OC (stereo not drawn),8
Cc1ccc(C)c(N(C)C(=O)COc2cc(=O)n(C)c3ccccc23)c1,4
CCc1ccc(Cn2nnc(C(=O)Nc3ccc(OC)cc3OC)c2N)cc1,15
Cc1ccc(CNS(=O)(=O)c2cc3c(cc2C)N(C)CCO3)cc1,8
C=C(CO)C1Cc2cc(C(C)=O)ccc2O1 (stereo not drawn),4
CCN(CC)c1ccc(NS(=O)(=O)c2ccc3c(c2)oc(=O)n3C)c(C)c1,4
CCCc1nc(SCc2cccnc2)c2c(=O)n(C)c(=O)n(C)c2n1,6
CC(C)CC(NC(=O)C1CCC(C)CC1)C(=O)Nc1ccc2c(c1)OCCO2 (stereo not drawn),0
COc1cccc(N2CCN(C(=O)c3ccc4nc(N5CCCCC5)sc4c3)CC2)c1,29
COc1ccc(Nc2cc(C)nc3nc(C)nn23)c(OC)c1,8
Cc1cccc(N2CCN(C(=O)c3cc(S(=O)(=O)N4CCOCC4)cn3C)CC2)c1C,2

Next structures follow.
compound,Hedgehog
CC(C)[C@H](NC(=O)[C@H](Cc1ccccc1)n1c(=O)[nH]c2ccccc2c1=O)C(=O)N[C@@H](Cc1ccccc1)C(=O)O,0
CCC(NS(=O)(=O)c1ccc(C)cc1)C(=O)N1CCN(c2ccccn2)CC1 (stereo not drawn),21
Cc1c(C)c2ccc(OCC(=O)N[C@@H](Cc3c[nH]c4ccccc34)C(=O)O)cc2oc1=O,11
CC1CCN(C(=O)C(Cc2ccccc2)n2cccc2)CC1 (stereo not drawn),-1
CC(=O)c1cccc(NC2c3ccccc3C(=O)N2Cc2ccc3c(c2)OCO3)c1 (stereo not drawn),0
Cc1ccc(O)c(NC(=O)C2=CC(c3ccco3)=NS(=O)(=O)N2C)c1,20
CC1(C)Oc2ccc3ccc(=O)oc3c2-c2cnoc21,0
Cc1ccc(-c2nc(NC(=O)CSc3nnc4scc(-c5ccccc5)n34)ns2)cc1,12
COCC(=O)NCCc1nc2ccccc2[nH]1,7
CCCc1cc(=O)oc2cc(OCC(=O)NC(Cc3ccc(Cl)cc3)C(=O)O)ccc12 (stereo not drawn),7
O=C(CSc1nnnn1-c1ccccc1Cl)Nc1ccc2c(c1)OCCO2,20
COc1ccc2c(c1OC)C(=O)OC2N1C(=O)CC[C@H]1C(=O)NCC1CCCO1 (stereo partly drawn),0
CCc1c(C)sc(NC(=O)c2cc(-c3ccc(O)cc3)on2)c1C#N,-2
O=C(C1CCCN(S(=O)(=O)c2cccc3cccnc23)C1)N1CCN(c2ccc(F)cc2)CC1 (stereo not drawn),23
COc1cc(C)c(S(=O)(=O)NCc2ccc3c(c2)OCO3)cc1C,5

Remaining list, next part.
compound,Hedgehog
COc1cccc(NC(=O)c2nnn(Cc3ccc(Br)cc3F)c2N)c1,25
CC(CNC(=O)CCS(=O)(=O)c1cc2c(cc1Cl)NC(=O)CO2)c1ccccc1 (stereo not drawn),0
CCN(c1ccccc1)S(=O)(=O)c1cc2c(cc1C)N(C)CCO2,15
CSCC[C@@H](C(=O)O)N1Cc2ccccc2C1=O,2
Cc1nc2sc(C(c3ccco3)N3CCC(Cc4ccccc4)CC3)c(O)n2n1 (stereo not drawn),7
Cc1ccc(C)c(N2CCN(C(=O)Cc3ccc(NC4=NC5CS(=O)(=O)CC5S4)cc3)CC2)c1 (stereo not drawn),5
CC(C)c1ccc(NC(=O)[C@H](Cc2c[nH]c3ccccc23)NC(=O)[C@@H]2Cc3ccccc3CN2)cc1,4
Cn1c(Cn2c(=O)sc3ccccc32)nnc1SCC(=O)N1CCN(c2ccccc2)CC1,21
CCOc1cc(C(=O)Nc2nnc(C)s2)cc(OCC)c1OCC,8
CCCc1cc(=O)oc2cc(OCC(=O)N3CCC(C(N)=O)CC3)ccc12,5
CCn1cc(C(=O)NCc2ccc(Cl)cc2)c(=O)c2cc(S(=O)(=O)N3CCOCC3)ccc21,32
C/C=C/Cn1c(SCCCc2ccccc2)nc2c1c(=O)[nH]c(=O)n2C,2
CC(NC(=O)Nc1ccc(Cl)cc1)C(c1cccs1)N1CCOCC1 (stereo not drawn),7
Cc1ccc(-c2cc(C)nc3ncnn23)cc1,9
Cc1oc(-c2ccc(Cl)cc2)nc1CS(=O)CC(=O)NCCN1CCCC1 (stereo not drawn),8

Looked up above.
COc1cccc(NC(=O)c2nnn(Cc3ccc(Br)cc3F)c2N)c1 in Hedgehog shows 25
Cc1ccc(-c2cc(C)nc3ncnn23)cc1 in Hedgehog shows 9

A second format for some results above.
CCn1cc(C(=O)NCc2ccc(Cl)cc2)c(=O)c2cc(S(=O)(=O)N3CCOCC3)ccc21
  Hedgehog = 32
CCOc1cc(C(=O)Nc2nnc(C)s2)cc(OCC)c1OCC
  Hedgehog = 8
Cn1c(Cn2c(=O)sc3ccccc32)nnc1SCC(=O)N1CCN(c2ccccc2)CC1
  Hedgehog = 21
CC(C)c1ccc(NC(=O)[C@H](Cc2c[nH]c3ccccc23)NC(=O)[C@@H]2Cc3ccccc3CN2)cc1
  Hedgehog = 4

(continued)
compound,Hedgehog
COc1cccc(NS(=O)(=O)c2cc3c(cc2C)NC(=O)CO3)c1,9
CCc1ccc(N2CC34C=CC(O3)C(C(=O)OC(C)C)C4C2=O)cc1 (stereo not drawn),20
COC(=O)c1cc(=O)nc2scc(C)n12,15
CCCCC(CC)COP(=O)(OCC(CC)CCCC)OCC(CC)CCCC (stereo not drawn),9
COc1ccc(-n2c(Cc3cccn3C)nnc2SCC(=O)N2CCC(C)CC2)cc1,20
C=C(C)C1(O)OC(=O)C=C1OC (stereo not drawn),2
Cc1cc(=O)n2nc(N3CCCC3C(=O)Nc3ccccc3C)sc2n1 (stereo not drawn),7
COc1ccc2c(C)c(CCC(=O)NCCCN3CCCC3=O)c(=O)oc2c1C,5
CCOC(=O)N1CCC(NC(=O)c2cc(C(=O)Nc3ccc(F)cc3F)ccc2CO)CC1,0
CCC(C(=O)NC1CCCCC1)n1c(SCc2ccc(F)cc2)nc2ccncc21 (stereo not drawn),4
COc1ccc(-c2[nH]c(-c3ccc(F)cc3)nc2SCC(=O)NC2CCCC2)cc1,10
O=S(=O)(NCCc1cn2ccccc2n1)c1ccc2c(c1)CCCC2,0
CCCCCn1c(CN2CC(C)OC(C)C2)nc2c1c(=O)n(C)c(=O)n2C (stereo not drawn),10
Cc1c(C(=O)OCC2CCCO2)[nH]c2c1C(=O)CC(c1ccc(N(C)C)cc1)C2 (stereo not drawn),15
Cc1cccc(C)c1OCc1nnc(SCC(=O)Nc2ccccc2F)o1,24

An excerpt from above in order of number of heavy atoms, largest number first:
compound,Hedgehog
CCC(C(=O)NC1CCCCC1)n1c(SCc2ccc(F)cc2)nc2ccncc21 (stereo not drawn),4
Cc1cccc(C)c1OCc1nnc(SCC(=O)Nc2ccccc2F)o1,24
C=C(C)C1(O)OC(=O)C=C1OC (stereo not drawn),2

The list continues:
compound,Hedgehog
O=C(O)CC1Oc2ccc(Cl)cc2NC1=O (stereo not drawn),17
O=C(CCCN1C(=O)c2ccccc2C1=O)Nc1c(C(=O)C2CC2)oc2ccccc12,3
CN1CCSc2ccc(C(=O)NCc3cccc(Br)c3)cc21,2
COc1ccc(C(c2sc3nc(C)nn3c2O)N2CCN(CCO)CC2)cc1OC (stereo not drawn),5
O=C(Nc1nnc(-c2ccccc2)s1)c1ccccc1F,6
COc1ccc(CN2CCc3cc(OC)c(OC)cc3C2)cc1O,7
Cc1cc(OCC(=O)NC(Cc2ccc(Cl)cc2)C(=O)O)c2c(C)cc(=O)oc2c1 (stereo not drawn),4
CCOC(=O)c1ccc(NC(=O)c2cc(S(=O)(=O)N3CCOCC3)cn2C)cc1,-1
CSc1nc(-c2ccco2)nn1S(=O)(=O)c1ccc(C)cc1,11
COc1cccc(C2CC(c3cccc(C)c3)n3ncnc3N2)c1 (stereo not drawn),11
Cc1cccc(-n2c(Cc3cc(=O)[nH]c(=O)[nH]3)nnc2SCC(=O)N2CCCCC2)c1,5
O=C(COc1cc2oc(=O)cc(-c3ccccc3)c2cc1Cl)NC(Cc1c[nH]c2ccc(O)cc12)C(=O)O (stereo not drawn),10
NC(=O)C1CCN(C(=O)COc2ccc3c4c(c(=O)oc3c2)CCC4)CC1,5
COC(=O)CN1C(=O)CSc2ccc(S(=O)(=O)N3CCC(C)CC3)cc21,1
